# Rce1 inhib = inhibitors of yeast Ras-converting enzyme. yeast membranes, quenched prenylated peptide cleavage fluorescence. actives 0.27% (n = 290,000). calls only. Q03530;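 active = fall in fluorescence gain of 50% or more versus controls, with final raw signal at or below 3038400; inconclusive = same 50% fall but final raw signal above 3038400; inactive = fall in fluorescence gain under 50%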;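 note: plate controls were neutral control wells for no effect and wells lacking membranes for full effect; tested at 10 µM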
# Target sequence (Q03530 whole entry, looked up): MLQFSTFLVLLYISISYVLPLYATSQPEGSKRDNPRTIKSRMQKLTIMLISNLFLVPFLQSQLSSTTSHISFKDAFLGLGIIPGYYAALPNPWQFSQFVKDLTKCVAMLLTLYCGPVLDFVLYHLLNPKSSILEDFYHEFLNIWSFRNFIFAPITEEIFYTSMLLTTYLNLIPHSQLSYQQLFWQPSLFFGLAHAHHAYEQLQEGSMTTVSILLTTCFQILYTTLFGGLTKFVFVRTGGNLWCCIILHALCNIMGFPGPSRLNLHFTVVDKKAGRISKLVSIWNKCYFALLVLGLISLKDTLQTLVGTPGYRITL
# UUG fidelity = yeast start codon fidelity modulation | AID 602363 | S. cerevisiae UUG-firefly luciferase reporter, luminescence/redox ratio | activity score, % at 18.7 µM | actives 0.13% (n = 350,000);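 active = replicate mean at a twofold rise or more, about +100% in these data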;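 note: firefly luciferase made from a UUG start codon reports start codon fidelity; reporter light over untreated wells divided by growth signal over untreated wells; some hits fall short of that in this replicate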
# CSC inhib = cancer stem cell inhibition; inhibition, % at 7.5 µM; actives 1.1% (n = 300,000); cancer stem cell-like cells viability, luminescence;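 active = mean at 75% or more and at least half the replicates too; inconclusive = mean and replicates disagree; tested in HMLE shEcad cells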;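 note: 0% = median of negative and 100% = median of positive control wells; the first replicate is given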
# HIV Env fusion = inhibitors of HIV Env-mediated cell fusion; AID 651610; actives 1.1% (n = 360,000); HeLa-JRFL Env/CEM21 cell fusion, luciferase; inhibition, % at 12.3 µM;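 active = mean replicate inhibition score of at least 50 and every replicate individually at or above 50; inconclusive = only one of the two criteria met; inactive = mean below 50 and not all replicates reaching 50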;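 note: 0% = plate neutral controls and 100% = maraviroc near 300 nM; one replicate is shown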
# PABP FP inh = PABP-poly(A) binding inhibition | PABP-poly(A) RNA binding, fluorescence polarization | inhibition, % at 35 µM | actives 1% (n = 290,000);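 active = 50% or more with normal probe brightness, or confirmed in later tests; inconclusive = above 50% with abnormal brightness, or retests that disagree; inactive = below 50% or failed in later tests; about a fifth of its hits are not listed in these tables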;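 note: calls also rest on retests at 20 µM and on dose response follow-up; controls were probe without protein and protein plus probe with vehicle; some compounds called inactive have numbers as strong as hits; many hits fall short of the cut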
# Target sequence (P11940 whole entry, looked up): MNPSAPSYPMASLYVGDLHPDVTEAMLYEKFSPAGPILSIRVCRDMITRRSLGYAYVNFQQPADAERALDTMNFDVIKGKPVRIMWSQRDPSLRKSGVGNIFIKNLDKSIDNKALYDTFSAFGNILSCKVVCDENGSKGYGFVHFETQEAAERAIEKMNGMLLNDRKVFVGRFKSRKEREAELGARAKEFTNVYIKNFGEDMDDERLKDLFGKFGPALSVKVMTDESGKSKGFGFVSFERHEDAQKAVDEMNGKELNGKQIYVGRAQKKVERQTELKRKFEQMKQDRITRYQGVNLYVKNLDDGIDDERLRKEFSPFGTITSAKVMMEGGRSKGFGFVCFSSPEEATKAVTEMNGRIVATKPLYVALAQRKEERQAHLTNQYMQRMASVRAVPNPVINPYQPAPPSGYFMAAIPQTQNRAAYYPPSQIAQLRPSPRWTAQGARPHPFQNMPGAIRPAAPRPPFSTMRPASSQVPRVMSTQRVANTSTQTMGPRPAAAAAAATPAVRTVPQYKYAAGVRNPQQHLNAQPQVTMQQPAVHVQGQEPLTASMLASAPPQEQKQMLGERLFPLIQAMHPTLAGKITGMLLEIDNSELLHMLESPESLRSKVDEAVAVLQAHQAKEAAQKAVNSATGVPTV
# MT1-MMP act inh = MT1-MMP (human) activation inhibition | GFP/RFP ratio change, % at 20 µM | P50281 | actives 0.061% (n = 360,000) | HT1080 RFP-PRO-GFP cells, GFP/RFP ratio fluorescence, overnight; percent of plate control window, DMSO zero;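 active = GFP/RFP ratio change of at least 30% with cell ATP level not reduced by more than half and red fluorescence within 50% of control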; note: strong numbers were not always called active
#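 Assay system – RFP-PRO-GFP reporter HT1080 cells · Compound dosing – single dose of 20 µM compound, 1% DMSO final · Incubation – overnight compound exposure at 37 °C · Measure – GFP/RFP fluorescence ratio · Benchmarks – DMSO wells and RFP-L50D-GFP cells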
# eIF4H inh = inhibitors of RNA binding by human eIF4H. eIF4H fluorescence polarization binding assay. inhibition, % at 35 µM. actives 0.94% (n = 290,000);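 active = 50% or more with normal probe brightness, or confirmed in later tests; inconclusive = above 50% with abnormal brightness, or retests that disagree; inactive = below 50% or failed in later tests; about a fifth of its hits are not listed in these tables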;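 note: calls also rest on retests at 20 µM and on dose response follow-up; 0% = protein and probe with vehicle and 100% = probe without protein; strong numbers were not always called active; many hits fall short of the cut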
# eIF4H inh retest = second read-out of eIF4H inh, no call of its own (marks repeat the call); inhibition, %; compound at 20 µM; confirmation average;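 mean of two retest wells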
# PABP FP inh retest = second read-out of PABP FP inh, no call of its own (marks repeat the call); inhibition, %; compound at 20 µM; confirmation repeats;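 mean of two retest wells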
# MT1-MMP act inh RFP = also measured in MT1-MMP act inh; calls as there; RFP signal change, %; measured here: RFP expression control read;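 0 = vehicle wells; hits needed this value within 50% of zero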
# An asterisk follows results filed as active; i = inactive; ? = inconclusive; . = no result given.
# Start of the data: the first two records as a preview:
SMILES,Rce1 inhib,UUG fidelity,CSC inhib,HIV Env fusion,PABP FP inh,MT1-MMP act inh,MT1-MMP act inh RFP,eIF4H inh,others
Cc1ccc2c(c1)c1ncn(CCC3=CCCCC3)c(=O)c1n2C,.,-23,79*,?,-4,2,-4,7,
COc1cc(OC)cc(C(=O)NCC(=O)OCC(=O)Nc2ncc(Cl)cc2Cl)c1,i,.,5,0,10,1,4,22,

# The listing (from the top)
SMILES,Rce1 inhib,UUG fidelity,CSC inhib,HIV Env fusion,PABP FP inh,MT1-MMP act inh,MT1-MMP act inh RFP,eIF4H inh,others
Cc1ccc2c(c1)c1ncn(CCC3=CCCCC3)c(=O)c1n2C,.,-23,79*,?,-4,2,-4,7,
COc1cc(OC)cc(C(=O)NCC(=O)OCC(=O)Nc2ncc(Cl)cc2Cl)c1,i,.,5,0,10,1,4,22,
CCc1nc2sc3c(Cl)ncnc3c2c2c1CCCC2,i,.,-13,.,8,.,.,0,
CC(C)NC(=O)NC(=O)CSc1ncccn1,i,.,0,8,-5,1,2,-6,
CC(C)N1C(=O)CCC1C(=O)NCc1ccc(F)cc1Cl (stereo unspecified),i,-14,6,-4,3,-2,1,5,
CCOC(=O)N1CCN(S(=O)(=O)c2cccc3cccnc23)CC1,i,-15,.,.,4,3,7,0,
Cn1c(SCC(=O)c2ccccc2)nnc1-c1ccncc1,i,1,.,1,4,0,2,-11,
O=C(COc1ccccc1[N+](=O)[O-])N/N=C/c1ccc[nH]1,i,-6,.,-18,7,2,-5,-12,
CC1CCCCC12NC(=O)N(CC(=O)NCc1ccc3c(c1)OCO3)C2=O (stereo unspecified),i,.,.,-13,-9,1,3,4,
CCOC(=O)C1CCN(C(=O)CCc2c(C)nc3ncnn3c2C)CC1,i,-15,-9,-55,5,-4,-3,8,
CC(C)Sc1nc2c(c(=O)n(C)c(=O)n2C)n1C,i,-10,1,.,-5,2,1,2,
CCOc1ccc(Nc2nc(N3CCCC3)nc(N3CCN(c4ccc(OC)cc4)CC3)n2)cc1,i,.,.,-15,-14,-1,-5,5,
Cc1cc(C)cc(NS(=O)(=O)c2ccc3c(c2)C(C)(C)C(=O)N3C)c1,i,7,.,7,1,-8,-6,7,
CCOc1ccc(/C=C2/Sc3ccc(C(=O)N4CCOCC4)cc3N(C)C2=O)cc1OC,i,7,16,12,7,2,-3,8,
Cc1ccc(-n2c(C)cc(/C=N/Nc3ccc([N+](=O)[O-])cn3)c2C)c(C)c1,i,0,2,.,10,-10,-4,7,

# Part of the list above in order of molar mass, low to high.
SMILES,Rce1 inhib,UUG fidelity,CSC inhib,HIV Env fusion,PABP FP inh,MT1-MMP act inh,MT1-MMP act inh RFP,eIF4H inh,others
CCc1nc2sc3c(Cl)ncnc3c2c2c1CCCC2,i,.,-13,.,8,.,.,0,
Cn1c(SCC(=O)c2ccccc2)nnc1-c1ccncc1,i,1,.,1,4,0,2,-11,
CC(C)N1C(=O)CCC1C(=O)NCc1ccc(F)cc1Cl (stereo unspecified),i,-14,6,-4,3,-2,1,5,
Cc1ccc(-n2c(C)cc(/C=N/Nc3ccc([N+](=O)[O-])cn3)c2C)c(C)c1,i,0,2,.,10,-10,-4,7,
CC1CCCCC12NC(=O)N(CC(=O)NCc1ccc3c(c1)OCO3)C2=O (stereo unspecified),i,.,.,-13,-9,1,3,4,
COc1cc(OC)cc(C(=O)NCC(=O)OCC(=O)Nc2ncc(Cl)cc2Cl)c1,i,.,5,0,10,1,4,22,
CCOc1ccc(Nc2nc(N3CCCC3)nc(N3CCN(c4ccc(OC)cc4)CC3)n2)cc1,i,.,.,-15,-14,-1,-5,5,

# Next structures follow:
SMILES,Rce1 inhib,UUG fidelity,CSC inhib,HIV Env fusion,PABP FP inh,MT1-MMP act inh,MT1-MMP act inh RFP,eIF4H inh,others
Cn1cc(CN2CCC(Oc3ccc(C(=O)N4CCCC4)cc3)CC2)cn1,i,-22,0,-3,0,-1,4,-6,
CCN1CCCC(OC(=O)Nc2ccccc2)C1 (stereo unspecified),i,28,-1,-8,3,-12,-1,-4,
O=C(CCCCCCC(=O)c1ccccc1)c1ccccc1,i,.,-2,-8,-3,0,-4,-4,
COc1ccc(/C=C(/NC(=O)/C=C/c2ccccc2)C(=O)N2CCOCC2)cc1,i,.,-10,9,7,-3,3,-3,
CN1CCn2c1nc(N1CCOCC1)nc2=O,i,3,-8,.,4,1,5,-1,
N#C/C(=C/c1ccco1)C(N)=S,i,.,3,-9,52*,-4,12,57*,
CCCCn1c(N)c(N(CC(C)C)C(=O)CCNC(=O)c2ccc(Br)cc2)c(=O)[nH]c1=O,.,.,-11,-3,.,-4,-3,.,
O=C(CNCc1ccc(F)cc1)Nc1ccc(S(=O)(=O)N2CCOCC2)cc1,i,-7,2,-3,11,0,2,-3,
CCN(c1cccc(C)c1)S(=O)(=O)c1ccc2[nH]c(=O)c(=O)[nH]c2c1,i,.,-8,.,7,-1,0,0,
Cc1c(S(=O)(=O)N(C)C2CCCCC2)c(=O)n(C)c(=O)n1C,i,-10,-13,3,.,2,1,.,
COc1cc2c(cc1OC)C(c1ccccc1)N(C(=O)c1ccccc1F)CC2 (stereo unspecified),i,0,-2,6,-6,0,1,-12,
Cc1[nH]c(C)c2c(=O)n(Cc3ccc(Cl)cc3)ncc12,i,5,2,0,7,4,1,-7,
CC(C)[C@H](NC(N)=O)C(=O)NCCc1ccc(Cl)cc1Cl,i,.,-5,9,-11,2,4,-4,
O=C(c1ccco1)c1cn(CC(=O)N2CCCCCC2)c2ccccc12,i,-3,-13,-2,-13,5,-1,-4,
Fc1ccc(Cn2nnc(-c3ccc(Cl)cc3)n2)cc1,i,3,2,-31,-6,6,4,0,
Cc1cc(C)c(C(O)c2ncc(-c3ccccc3F)[nH]2)c(C)c1 (stereo unspecified),.,-3,.,16,.,2,-5,.,
O=C(O)C1CC(O)CN1S(=O)(=O)c1cccs1 (stereo unspecified),i,-4,-16,-14,13,0,4,0,
COc1ccccc1NC(=O)CN1CCN(CC(=O)Nc2ccc3c(c2)OCCO3)CC1,.,2,2,.,34,-3,-3,3,
CC1(C)Cc2nc3sc4c(=O)n(CC(=O)NCc5ccco5)cnc4c3cc2CO1,i,-6,.,-42,0,-7,-12,1,
Fc1ccccc1/C=N/NC(=S)Nc1ccc(Cl)cc1Cl,i,-13,64,28,16,-5,-8,0,
COc1cc(N)ccc1NC(=O)c1cc2ccccc2o1,i,-16,11,-273,6,3,1,-3,
Cc1cc(N2CCOCC2)nc2ccc(NC(=S)N3CCN(c4ccccc4)CC3)cc12,i,.,44,-6,2,.,.,2,
Cc1ccc(N2C(=O)Cc3ccccc3C2=O)cc1,i,-23,7,-3,6,2,5,-3,
CN(C)CCNc1nc(S(=O)(=O)c2ccccc2)c(Cl)s1,i,.,31,14,-1,2,2,-3,
Cc1ccc(-c2nnn(CC(=O)N(CC(=O)NC3CCCCC3)c3cnc4ccccc4c3)n2)o1,i,-4,0,13,.,2,6,.,
CCn1nc(C)cc1C(=O)N1CCCC(Nc2ccc(F)c(F)c2)C1 (stereo unspecified),i,0,-7,6,4,1,1,3,
COc1ccc(C)cc1N(C(=O)c1snc(C(N)=O)c1N)C(C(=O)NC1CCCCC1)c1ccc(C)o1 (stereo unspecified),i,-2,.,22,2,-7,-4,0,
N#Cc1ccc(COC(=O)CSc2nnc(N)s2)cc1,i,.,-10,7,-3,5,5,-13,
Cc1nn(CCCC(=O)Nc2c(F)cc(F)cc2Br)c(C)c1[N+](=O)[O-],i,.,-12,-12,-14,2,4,-10,
O=C(NC1CCc2ccccc21)c1cc(COc2cncc(Cl)c2)on1 (stereo unspecified),i,-5,8,10,-11,1,-10,1,
CCSc1ccc(-c2ccco2)nn1,i,.,8,-8,12,-2,4,79,eIF4H inh retest=-2;PABP FP inh retest=0
Cc1oc(-c2ccccc2)nc1C(=O)OCC(=O)NCc1ccc(F)cc1,.,-19,.,-26,.,2,3,.,
Cc1ccc(S(=O)(=O)NC2=NCCC2)cc1,i,-5,-10,.,-1,1,4,10,
CCc1c(C#N)c(SCc2c(C)noc2C)nc2c1C(=O)CC(C)(C)C2,i,-8,18,15,10,-7,-11,10,
COc1ccc(CC(=O)NCCS(=O)(=O)N2CCN(c3ccc(F)cc3)CC2)cc1OC,i,14,-10,4,5,3,-10,-4,
COc1ccc(C(=O)NCCS(=O)(=O)N2CCCCCC2)cc1,i,-8,1,-136,.,1,2,.,
NS(=O)(=O)c1ccc(N=Nc2c[nH]c(=O)c(O)c2)cc1,i,22,0,14,33*,-21,16,54*,eIF4H inh retest=77*;PABP FP inh retest=64*
O=C(O)c1ccc(NN=CC2=C(N3CCOCC3)/C(=C/c3ccccc3)CC2)cc1,.,-15,.,14,.,0,-1,.,
Cc1ccc(C(=O)NCCC2=CCCCC2)cc1S(=O)(=O)N1CCOCC1,i,.,-25,.,.,-2,-1,.,
Cc1cc(S(=O)(=O)N2CCCCC2)ccc1OCC(=O)Nc1ccccc1,i,-4,10,-5,4,5,-7,2,
NC(=O)N/N=C/c1ccccc1OC(=O)c1ccccc1Br,i,.,-13,-10,-18,-13,-2,-6,
CCCc1nc(SCC(=O)NC2CCCC2)c2ccccc2n1,i,.,9,18,9,-4,-6,4,
Cc1ccc(NC(=O)C2C3C=CC(O3)C2C(=O)O)c(C)c1 (stereo unspecified),i,-23,0,-12,-4,1,3,0,
Cc1ccc(S(=O)(=O)NCc2ccccc2)cc1C(=O)N1CCN(c2ccccc2)CC1,.,-10,.,4,.,-2,-8,.,
CCOC(=O)c1ccc(N[C@@H]2CCN3C(=O)c4ccccc4[C@@H]3C[C@H]2O)cc1,.,-8,.,-83,.,1,8,.,
CC(=O)Nc1ccc(NC(=O)c2c(C)c(-c3ccccc3)nc3ccccc23)cc1,i,.,-14,20,.,0,-3,.,
C=CCn1c(SCC(=O)NC2CC2)nnc1C1CC1,i,-2,-5,12,-9,1,6,6,
O=C(CCc1ccccc1)Nc1ccc2c(c1)OCCO2,i,-24,-4,.,1,-2,1,-2,
O=C(Nc1cc(Sc2nc3ccccc3s2)cc([N+](=O)[O-])c1)c1ccccc1,i,-26,50,18,10,1,-9,-3,
CC1(C)CCC(=O)N2CC[C@H]3C[C@H](OC(=O)Nc4ccc(Br)cc4)C[C@@H]1[C@H]32,i,-9,21,-23,2,3,-3,3,
CCOc1cccc2cc(C(=O)NCc3ccccc3Cl)c(=O)oc12,i,-16,-6,6,4,0,0,-11,

# High-throughput results as filed in PubChem.
